Compound activity as filed in PubChem.
Cruzain inh Det = blocks cruzain activity in presence of Triton detergent. AID 1478. P25779. 0.43% of 200,000 active. Potency, µM, without a hit: max response, negative = inhibition, most hits filed as inhibitors. purified cruzain, Z-FR-AMC fluorescence, 0.01% Triton;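 further: plate controls were neutral wells for no effect and buffer without enzyme for full effect; nearly all actives have a fitted effect of over 40% in size; top concentration of the series not given in the record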
Target sequence (P25779 123-467 limits assumed): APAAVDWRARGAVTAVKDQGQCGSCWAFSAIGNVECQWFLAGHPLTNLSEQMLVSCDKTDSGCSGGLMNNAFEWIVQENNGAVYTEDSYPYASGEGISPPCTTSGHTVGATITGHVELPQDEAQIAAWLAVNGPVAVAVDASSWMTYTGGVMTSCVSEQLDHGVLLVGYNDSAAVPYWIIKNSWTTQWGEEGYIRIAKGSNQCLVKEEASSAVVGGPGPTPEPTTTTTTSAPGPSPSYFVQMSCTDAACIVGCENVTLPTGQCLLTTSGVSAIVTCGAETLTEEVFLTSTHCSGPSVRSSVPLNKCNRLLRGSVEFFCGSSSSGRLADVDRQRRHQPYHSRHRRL
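In this qHTS format, compounds are incubated with 1.5 nM cruzain for 15 min at room temperature before 2 uM Z-FR-AMC is added. Release of AMC is followed at 360/450 nm, and progress is taken as the 60 s fluorescence difference.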
SARS PLpro yeast = inhibitors of SARS-CoV papain-like protease in yeast; 0.19% of 330,000 active; S. cerevisiae expressing SARS-CoV PLpro, growth rescue; control for the full effect not named in the record; Potency, µM (titrated, usually from 32.9 µM), inactives show top-dose activity, positive = growth rescue; active means well fitted rising curve with a large enough effect; inconclusive means small, poorly fitted or top-dose-only effect; inactive means no such curve, though single readings can be large or run the other way; further: 0% is about no effect; nearly all actives have a fitted effect of over 55% in size; growth read by luminescence after 48 h
Cruzain noTriton = inhibitors of Trypanosoma cruzi cruzain without detergent; Potency, µM, without a hit: max response, negative = inhibition, actives largely listed as inhibitors; 2.3% of 200,000 active; P25779; AID 1476; purified cruzain, Z-FR-AMC fluorescence, no detergent;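 further: plate controls were enzyme without inhibitor for no effect and buffer without enzyme for full effect; nearly all actives have a fitted effect of over 40% in size; top concentration of the series not given in the record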
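Detergent-free condition (0.00005% Triton X-100) in acetate buffer pH 5.5 with DTT. 1.5 nM enzyme and compound were pre-mixed 15 min, then 2 uM Z-FR-AMC substrate added; reaction progress from fluorescence change between first and third reads (60 s).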
RE007 growth inh = less growth of the S. pombe RE007 Vpr strain; S. pombe RE007 Vpr strain, BacTiter-Glo ATP luminescence, 24 h; control for the full effect not named in the record; Potency, µM (highest dose often 92.2 µM), without a hit: at the highest dose activity change, negative = less growth; 0.21% of 360,000 active; active = well fitted falling curve with a large enough effect; inconclusive = small, poorly fitted or top-dose-only effect; inactive = no such curve, though single readings can be large or run the other way;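 further: on the % scale 0 is the no-effect control and ±100 the full control effect; nearly all actives have a fitted effect of over 50% in size; the assay follows cell death caused by Vpr and the record does not say whether a fall means rescue or toxicity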
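Fission yeast strain RE007, carrying one chromosomally integrated HIV-1 vpr copy, was seeded at OD 0.01 in PMG+AL medium with 23 nL pinned compound. After 24 h at 30 °C and 99% humidity, viability was read by BacTiter-Glo luminescence.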
2A StopGo = lowers the luciferase signal of an FMDV 2A StopGo reporter; 1.2% of 410,000 active; AID 1159524; human cells with a luciferase reporter of 2A StopGo recoding; control for the full effect not named in the record; Potency, µM (doses to about 57.9 µM), inactives show top-dose signal change, negative = less light; active = well fitted falling curve with a large enough effect; inconclusive = small, poorly fitted or top-dose-only effect; inactive = no such curve, though single readings can be large or run the other way; tested in HEK293T cells; further: on the % scale 0 is the no-effect control and ±100 the full control effect; nearly all actives have a fitted effect of over 45% in size; luciferase light after 4 h
Lassa entry inh = inhibitors of Lassa virus binding or cell entry; Lassa virus pseudotype entry inhibition, cell reporter; control for the full effect not named in the record; Potency, µM (doses to about 37.9 µM), for inactives: at the highest dose activity change, negative = inhibition, most hits filed as inhibitors; 1.2% of 300,000 active; active means well fitted inhibition curve with a large enough effect; inconclusive means small, poorly fitted or top-dose-only effect, or effect the other way; inactive means flat fitted curve, though single readings scatter; tested in HEK293 cells; further: on the % scale 0 is the no-effect control and ±100 the full control effect; nearly all actives have a fitted effect of over 50% in size; luciferase read-out
NS1 inh = influenza NS1 inhibition. S. cerevisiae slowed by influenza A NS1, growth recovery by OD600. Potency, µM (titrated, usually from 46.1 µM), without a hit: top-dose activity, positive = more growth. 0.4% of 270,000 active. AID 2326; active means well fitted rising curve with a large enough effect; inconclusive means small, poorly fitted or top-dose-only effect; inactive means no such curve, though single readings can be large or run the other way; further: nearly all actives have a fitted effect of over 50% in size
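A cell-based growth assay was used: compounds that relieve NS1-induced slow growth of budding yeast raise OD600. Assay medium was yeast nitrogen base with ammonium sulphate and -URA supplement, pH 6.0, with 2% galactose.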
Marburg entry inh = blocks Marburg virus binding to or entry into cells; AID 540276; Marburg virus pseudotyped entry inhibition, cell reporter; control for the full effect not named in the record; about a third of the inactives were read at about 46 µM; Potency, µM (titrated, usually from 37.8 µM), for inactives: top-dose activity change, negative = inhibition, usual class: inhibitors; 1.8% of 300,000 active; active = well fitted inhibition curve with a large enough effect; inconclusive = small, poorly fitted or top-dose-only effect, or effect the other way; inactive = flat fitted curve, though single readings scatter; tested in HEK293 cells; about a fifth of its hits are not listed in these tables; further: on the % scale 0 is the no-effect control and ±100 the full control effect; luciferase read-out
An asterisk follows results filed as active; ? = inconclusive; . = no result given; & = joins results of further samples; [ ] = another dose, or the depositor's remark. Unless noted, the call rests on the fitted dose curve; in most records, active means well fitted curve in the direction sought with a large enough effect; inconclusive means small, poorly fitted or top-dose-only effect, or another doubt; inactive means no such curve, though single readings can be large; an effect the other way counts as inactive or inconclusive. Potency means the concentration at half of the fitted maximal effect.

SMILES	Cruzain inh Det	SARS PLpro yeast	Cruzain noTriton	RE007 growth inh	2A StopGo	Lassa entry inh	NS1 inh	Marburg entry inh
CC(C)CCN(Cc1ccco1)C(=O)c1cc2c(Cl)nc3ccccc3c2s1	-13.8%	.	0.2%	.	-13.2%	-8.1%[46.1 µM]	.	-20.8%[46.1 µM]
Cn1cc(CN2CCC(C(=O)Nc3cccc(-c4cscn4)c3)CC2)cn1	.	0.5%	.	12.3%	-8.6%	-11.6%[46.1 µM]	-12.8%	-1.7%[46.1 µM]
CCOC(=O)N1CCC(Nc2nc(OC)nc(OC)n2)CC1	1.1%	11.4%	6.0%	-3.1%	-13.2%	1.1%	6.3%	7.4%
O=C(CCCCn1c(=O)[nH]c2ccsc2c1=O)NCCc1ccccc1	.	-2.0%	.	6.5%	12.3%	3.2%[46.1 µM]	.	-0.3%[46.1 µM]
O=C(NNC(=S)Nc1ccccc1Cl)c1ccccc1	.	-4.2%	.	-22.1%	37.5%[activator]	-29.7%	-4.9%	-12.8%
O=C(Nc1ccc(C(=O)Nc2ccccc2Cl)cc1)c1cccnc1	.	-7.7%	.	4.2%	-5.3%	-9.8%[46.1 µM]	-4.3%	24.9%[46.1 µM]
O=[N+]([O-])c1cc(S(=O)(=O)N2CCOCC2)ccc1NS(=O)(=O)c1ccccc1	.	13.7%	.	-11.2%	-9.9%	10.8%	.	-20.6%
CC1(C)CC2(CCO1)CNC(=O)O2 (stereo not given)	-1.1%	-1.5%	-3.3%	14.2%	25.4%	8.0%	-0.2%	28.0%
Cc1cccnc1-n1c(-c2ccco2)nc2ccccc2c1=O	-1.9%	9.4%	-1.6%	13.4%	-7.0%	0.4%	-21.3%	-1.0%[46.1 µM]
Cc1ccc(C(=O)NCC(=O)OCC(=O)NC2CCCC(C)C2C)s1 (stereo not given)	.	-1.2%	.	1.3%	-14.1%	18.6%	.	24.3%[46.1 µM]
COC(=O)CSc1nc2ccc(N)cc2s1	.	-1.8%	.	-6.7%	54.9%[activator]	5.4%	7.4%	?
CCN(c1ccccc1)S(=O)(=O)c1cccc(C(=O)NCC(c2ccc(F)cc2)N2CCOCC2)c1 (stereo not given)	.	.	.	-1.5%	-10.9%	?	.	?
COCc1nnc(NC(=O)c2ccc(S(=O)(=O)N(C)Cc3ccccc3)cc2)o1	.	-4.2%	.	24.1%	?	?	-27.6%	?
CCSc1nnc(NC(=O)c2cnccn2)s1	-3.0%	-0.9%	-6.4%	-19.9%	.	21.4%	-39.0%	?
O=C(c1cccc([N+](=O)[O-])c1)c1ccc2c(c1)OCCOCCOCCOCCO2	.	-0.8%	.	0.3%	-5.5%	-7.7%	-7.6%	1.8%
CCn1c(CCn2c3ccccc3c3ccccc32)n[nH]c1=S	-5.1%	14.0%	-0.2%	5.7%	-30.0%	-1.3%	27.2%	4.0%
CCOC(=O)c1nnn(CC(=O)Nc2cc(C)cc(C)c2)c1C(=O)OCC	-3.1%	.	11.8%	.	-17.4%	?	.	6.1%[46.1 µM]
O=S(=O)(Nc1ccccc1Cl)c1ccc(F)cc1	0.6%	-0.6%	8.3%	-2.3%	4.5%	22.6%[14.3 µM]	-9.1%	-1.0%
COC(=O)c1ccccc1NC(=O)c1cnn(-c2ccc(F)cc2)c1-n1cccc1	-2.6%	.	3.9%	.	-1.8%	-3.1%[46.1 µM]	.	.
CCOC(=O)c1c(C)n(C)c2ccc(OC)c(NC(=O)CN3CCC(C(=O)OCC)CC3)c12	.	-0.8%	.	13.2%	9.2%	.	2.4%	.
Cc1cccc(/C=N/c2sc3c(c2C#N)CCN(Cc2ccccc2)C3)c1O	-6.8%	0.0%	?	1.6%	53.5%[activator]	?	-4.0%	12.4%
O=C(Nc1ccc2nc(-c3ccccn3)c(-c3ccccn3)nc2c1)N1CCOCC1	.	11.7%	.	0.5%	-5.2%	2.4%	-0.1%	6.6%[46.1 µM]
Cc1cccc(C2N(c3nccs3)C(=O)C3CCCN32)c1 (stereo not given)	3.2%	-12.3%	-6.0%	-16.7%	-8.1%	0.0%	?	10.4%
COc1cc(/C=C2\SC(=O)N(Cc3ccc(F)cc3)C2=O)cc([N+](=O)[O-])c1O	.	-0.9%	.	11.1%	-9.8%	?	4.2%	?
Cc1ccc(NC(=O)c2ncoc2-c2ccco2)cc1Cl	-7.5%	.	-1.9%	.	?	6.9%[46.1 µM]	.	.
Cc1cc(C)cc(NC(=O)C/C(N)=N/O)c1	-3.3%	-1.7%	-4.0%	2.6%	.	15.8%	3.0%	12.9%
Cc1ccc(C(C(=O)NCC2CCCO2)N(C(=O)c2snc(C(N)=O)c2N)c2ccc(C)c(C)c2)o1 (stereo not given)	.	-0.7%	.	9.4%	20.6%	?	8.6%	?
O=C(OCc1nnc(-c2ccccc2)o1)c1cn(-c2ccccc2)nc1-c1ccccc1	0.0%	-0.7%	-16.5%	26.3%	-19.1%	13.4%	-2.0%	?
CCOC(=O)c1ccccc1NC(=O)CSc1nc2cn(CC)nc2c(=O)n1Cc1ccc(Cl)cc1	-2.6%	.	-1.7%	.	-21.8%	2.2%[46.1 µM]	.	-14.9%[46.1 µM]
O=C(c1cc(-c2ccccc2O)on1)N1CCCCCC1	.	0.4%	.	0.0%	34.2%[activator]	-29.2%	-1.8%	-24.9%[46.1 µM]
CN1C(=O)C(C)(C)c2cc(S(=O)(=O)N3CCC(C(=O)NCc4ccc(Cl)cc4)CC3)ccc21	.	-5.7%	.	-11.7%	-20.8%	.	-5.0%	.
CS/C(=N\NC(N)=O)c1ccccc1	-1.9%	4.0%	-3.6%	2.6%	-1.8%	5.4%	8.4%	?
CCOc1ccccc1C(=O)Nc1nnc(C(C)C)s1	-3.8%	2.2%	3.5%	-19.9%	2.1%	.	-9.2%	.
O=C(N/C(=C/c1cn(-c2ccccc2)nc1-c1ccccc1)C(=O)N1CCOCC1)c1ccc(Cl)cc1Cl	-4.7%	8.3%	-8.4%	-5.4%	-22.0%	11.3%	8.6%	-0.8%
Cc1cc(C)n(CC(=O)Nc2ccc3c(c2)OCO3)c(=O)c1C#N	.	0.3%	.	-9.5%	-3.6%	16.7%	.	1.9%
COc1ccc(C(=O)/C(C#N)=N/Nc2ccc([N+](=O)[O-])cc2)cc1	.	-1.0%	.	7.8%	?	.	-4.7%	.
CN(C)C(=O)c1ccc(NC(=O)c2ccccc2SCC(=O)N2CCCC2)cc1	.	-0.5%	.	-7.3%	28.1%	0.8%	.	3.3%
C=CCn1c(SCc2cc(=O)n3ccsc3n2)nc2sc(C)c(C)c2c1=O	-1.5%	1.5%	?	-5.9%	-18.7%	?	-7.2%	0.0%
O=C(Oc1cccc(NC(=O)c2ccco2)c1)c1cccc(S(=O)(=O)N2CCCCC2)c1	-2.8%	-4.1%	?	18.2%	30.1%[activator]	22.3%	9.1%	7.3%[46.1 µM]
CC(C)OC(=O)c1cc2c(ccn2C)n1CC(=O)N(Cc1ccccc1)c1ccc(F)cc1	-9.6%	-47.9%	-5.4%	-10.7%	0.0%	5.01µM*	?	5.17µM*
O=[N+]([O-])c1ccc(/C=N/Nc2ncccc2[N+](=O)[O-])s1	.	.	.	-20.7%	0.0%	9.2%	.	16.8%[46.1 µM]
CSc1ncccc1C(=O)OCC(=O)Nc1cc(C(F)(F)F)ccc1N1CCOCC1	-6.4%	-2.1%	19.6%	5.9%	.	-22.6%	-39.9%	-23.4%
COc1cccc(CNCCO)c1OCc1ccccc1	.	0.8%	.	38.0%	-13.4%	.	6.2%	?
CCOC(=O)Cc1csc(NC(=O)c2ccc3ncsc3c2)n1	.	-1.0%	.	3.7%	0.0%	.	4.1%	.
CCc1ccc(NC(=O)CN2C(=O)C(c3ccc(Cl)cc3)=NC23CCCCC3)cc1	-5.7%	.	?	.	-22.8%	-2.2%[46.1 µM]	.	-4.7%[46.1 µM]
CCCCc1cc(=O)oc2c(CN3CCN(C)CC3)c(O)ccc12	.	1.1%	.	4.3%	0.0%	-1.9%[46.1 µM]	8.1%	-1.3%[46.1 µM]
CN(CCCN1CCCCC1)C(=O)c1cc(COc2ccc(F)cc2F)on1	.	-1.8%	.	-20.4%	-15.7%	?	-6.1%	-9.3%
O=C(Nc1ccnn1C1CCN(C/C=C/c2ccc(F)cc2)CC1)C1CCCC1	.	9.1%	.	0.3%	-21.4%	14.8%[46.1 µM]	-0.2%	?
COc1cc(/C=N/NC(=O)c2ccncc2)ccc1OC(=O)c1cc(OC)c(OC)c(OC)c1	.	1.1%	.	-8.2%	-6.2%	-26.1%[46.1 µM]	2.7%	13.9%[46.1 µM]
Cc1ccc(S(=O)(=O)C(C#N)c2nc3ccccc3nc2N2CCCC2)cc1 (stereo not given)	-22.7%	-14.4%	5.4%	-11.4%	12.1%	-3.3%	-58.0%	-24.6%
More records follow:
SMILES	Cruzain inh Det	SARS PLpro yeast	Cruzain noTriton	RE007 growth inh	2A StopGo	Lassa entry inh	NS1 inh	Marburg entry inh
COc1ccc(C(C)=O)cc1CSc1nc(C)cc(C)n1	.	-1.8%	.	23.1%	-0.2%	8.4%	.	?
COc1ccc(-c2nn(-c3ccccc3)cc2C(=O)N2CCOCC2)cc1	2.9%	6.7%	16.3%	3.5%	.	-20.1%	-10.6%	2.8%
CCOCCCN(C(=O)Nc1ccc(Cl)cc1)C1CCN(C(C)=O)CC1	0.7%	.	4.1%	.	-0.9%	3.2%[46.1 µM]	.	.
O=C(NCc1ccccn1)C(=O)NCC1OCCN1S(=O)(=O)c1ccc(Cl)cc1 (stereo not given)	.	3.4%	.	-13.1%	-3.5%	9.1%	-2.1%	2.7%
C=CCn1c(COc2ccccc2F)nnc1SCC(=O)N1CC(=O)Nc2ccccc21	4.7%	0.3%	5.1%	-15.1%	12.2%	-7.7%	0.1%	0.0%&-6.1%
CC(OC(=O)Cc1n[nH]c(=O)c2ccccc12)C(=O)Nc1ccc(S(N)(=O)=O)cc1 (stereo not given)	.	3.7%	.	25.1%	-19.4%	27.5%	.	21.6%
CCOC(=O)C1=NNC2(c3ccc(C)cc3)C(=O)N(c3ccc(Cl)cc3)C(=O)C12 (stereo not given)	-6.9%	14.4%	10.5%	1.3%	-14.0%	15.3%	1.0%	?
O=C(Cc1c(F)cccc1Cl)Nc1ccccc1C(=O)N1CCCCC1	.	-2.9%	.	-4.6%	34.5%[activator]	?	.	?

Hits appear at their usual frequency. About 4.7% of those tested had a hit in this group.
